# UUG fidelity: modulators of start codon recognition fidelity in yeast; activity score, % at 18.7 µM; AID 602363; actives 0.13% (n = 350,000); S. cerevisiae UUG-firefly luciferase reporter, luminescence/redox ratio;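 active means replicate mean at a twofold rise or more, about +100% in these data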;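 further: firefly luciferase made from a UUG start codon reports start codon fidelity; reporter light over untreated wells divided by growth signal over untreated wells; some hits fall short of that in this replicate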
# Active calls of the source: *; & = joins results of further samples. This is a subset; rates above refer to the full screens.
SMILES,UUG fidelity
CO[C@@H]1CN(C)C(=O)c2ccc(NS(=O)(=O)c3ccccc3)cc2OC[C@H](C)N(C(=O)NC(C)C)C[C@@H]1C,13
COc1ccc(S(=O)(=O)N(C)C[C@@H]2Oc3ccc(NC(=O)CCCN(C)C)cc3CC(=O)N([C@@H](C)CO)C[C@@H]2C)cc1,-3
COC(=O)C[C@@H]1C[C@@H]2c3cc(NC(=O)Nc4ccccc4F)ccc3O[C@@H]2[C@@H](CO)O1,72*
C[C@@H]1CN([C@@H](C)CO)C(=O)c2cc(NC(=O)NC3CCCCC3)ccc2O[C@H]1CN(C)S(=O)(=O)c1ccc(F)cc1,0
C[C@@H]1CN([C@@H](C)CO)C(=O)c2cccc(NC(=O)C3CCOCC3)c2O[C@H]1CN(C)C,8
CO[C@H]1CN(C)C(=O)c2cc(NC(=O)Nc3ccccc3F)ccc2OC[C@H](C)N(CCC(F)(F)F)C[C@@H]1C,0
C/C=C/c1ccc2c(c1)[C@@H]1[C@@H](CCN1S(=O)(=O)c1ccc(C)cc1)[C@@H](CO)N2,-12
Cc1cccc(-c2ccc([C@@H]3[C@@H](CO)N4CCCCN(Cc5ccncc5)C[C@@H]34)cc2)c1,-5
COCC(=O)N1CCCCN2[C@H](CO)[C@H](c3ccc(-c4ccc(OC)cc4)cc3)[C@@H]2C1,2
OC[C@@H]1Nc2ccc(C#Cc3ccc(F)cc3)cc2[C@@H]2[C@H]1CCN2Cc1ccc2c(c1)OCO2,-15
CO[C@H]1CN(C)C(=O)c2ccc(NC(=O)c3ccccc3)cc2OC[C@@H](C)NC[C@@H]1C,8
O=C(CN1CCOCC1)N1CC[C@@H]2[C@H](CO)Nc3ccc(-c4ccccc4F)cc3[C@@H]21,2
C[C@H]1CN([C@@H](C)CO)C(=O)c2cc(NC(=O)c3ccncc3)ccc2O[C@H]1CN(C)C(=O)Nc1ccc(F)cc1,0
O=C(C[C@@H]1CC[C@@H]2[C@H](COC[C@@H](O)CN2C(=O)Nc2ccccc2)O1)NCCc1ccncc1,-9
COc1ccc(NC(=O)Nc2ccc3c(c2)[C@@H]2C[C@H](CC(=O)N4CCCCC4)O[C@@H](CO)[C@@H]2O3)cc1,-4
O=C(C[C@H]1CC[C@@H]2[C@H](COC[C@@H](O)CN2C(=O)c2ccccc2F)O1)N1CCOCC1,-7
CCC(=O)N1[C@H](CO)[C@@H](c2ccc(C3=CCCC3)cc2)[C@H]1CNC(=O)CN(C)C,23
C[C@H](CO)N1C[C@H](C)[C@H](CN(C)S(=O)(=O)c2ccc(Cl)cc2)Oc2ccc(NC(=O)Nc3ccccc3)cc2CC1=O,29
CO[C@@H]1CN(C)C(=O)c2ccc(NS(=O)(=O)c3ccc(Cl)cc3)cc2OC[C@H](C)NC[C@@H]1C,-1
O=S(=O)(c1ccccc1)N1CC[C@H]2[C@H](CO)Nc3ccc(Br)cc3[C@H]21,-8
C[C@@H]1CN([C@H](C)CO)C(=O)Cc2cc(N(C)C)ccc2O[C@@H]1CN(C)C(=O)Nc1ccc(F)cc1,0
CCCC(=O)Nc1ccc2c(c1)C(=O)N(C)C[C@H](OC)[C@H](C)CN(C(=O)CN(C)C)[C@@H](C)CO2,-1
C[C@H]1CN([C@@H](C)CO)C(=O)c2cc(NC(=O)Nc3ccccc3)ccc2O[C@H]1CN(C)S(C)(=O)=O,3
C[C@H]1CN([C@@H](C)CO)C(=O)CCCn2nncc2CO[C@@H]1CN(C)C(=O)Nc1cccc(Oc2ccccn2)c1,-7
CC(C)NC(=O)N1[C@H](CN(C)C(=O)c2ccccc2)[C@@H](c2ccccc2)[C@@H]1CO,-6
# Next part.
SMILES,UUG fidelity
CNC[C@H]1Oc2c(NC(=O)c3cc(C)nn3C)cccc2C(=O)N([C@H](C)CO)C[C@@H]1C,0
CN1CCN(C(=O)C[C@H]2C[C@H]3c4cc(NS(=O)(=O)c5ccc(F)cc5)ccc4O[C@H]3[C@@H](CO)O2)CC1,4
CC(=O)N1[C@H](CO)[C@@H](c2ccccc2)[C@H]1CN(C(=O)NC(C)C)C1CCCC1,-10&-13
CC(=O)N1[C@H](CO)[C@@H](c2ccc(-c3ccccc3)cc2)[C@H]1CNC(=O)C1CC1,-1
Cc1noc(C)c1NC(=O)Nc1ccc2c(c1)C(=O)N([C@H](C)CO)C[C@H](C)[C@@H](CN(C)Cc1ccc(-c3ccccc3)cc1)O2,-5
COc1cc(C(=O)NCCOc2ccc(Cl)cc2)ccc1OCc1c(C)noc1C,-9
C[C@@H]1CN([C@H](C)CO)S(=O)(=O)c2ccc(C3=CCCC3)cc2O[C@H]1CN(C)Cc1cccc(C(=O)O)c1,3
Cn1cnc(S(=O)(=O)N2CCCCN3[C@@H](CO)[C@H](c4ccc(-c5ccccc5F)cc4)[C@@H]3C2)c1,6
CCCC#Cc1ccc([C@H]2[C@@H](CO)N3CCCCN(C(=O)NC4CCCC4)C[C@@H]23)cc1,11
C[C@H]1CN([C@@H](C)CO)C(=O)Cc2cc(NC(=O)Nc3ccc(F)cc3)ccc2O[C@H]1CN(C)Cc1ccncc1,-14
CCC(=O)N1[C@H](CO)[C@@H](c2ccccc2)[C@@H]1CN(CC)C(=O)c1ccc(F)cc1,-8
Cc1ccccc1S(=O)(=O)N1C[C@@H](O)COC[C@@H]2O[C@@H](CC(=O)N3CCCCC3)CC[C@H]21,1
N#Cc1ccc(-c2ccc([C@H]3[C@H](CO)N4CCCCN(S(=O)(=O)c5ccccc5)C[C@@H]34)cc2)cc1,-7
C[C@@H](NC(=O)[C@H]1[C@H](CO)[C@H]2Cn3c(ccc(-c4ccccc4)c3=O)[C@@H]1N2C)c1ccccc1,20
CO[C@@H]1CN(C)C(=O)c2ccc(NS(=O)(=O)c3cn(C)cn3)cc2OC[C@@H](C)N(CCC(F)(F)F)C[C@@H]1C,-9
COc1ccc(NC(=O)Nc2ccc3c(c2)C(=O)N([C@@H](C)CO)C[C@H](C)[C@@H](CN(C)Cc2ccncc2)O3)cc1,-14
C[C@@H](NC(=O)C[C@H]1CC[C@H]2[C@@H](COC[C@@H](O)CN2C(=O)Nc2cccc(F)c2)O1)c1ccccc1,3
O=C(CN1CCOCC1)N1CC[C@H]2[C@H](CO)Nc3ccc(-c4ccccc4)cc3[C@H]21,-7
O=C(c1ccccc1F)N1CC[C@H]2[C@H](CO)Nc3ccc(-c4cccc(F)c4)cc3[C@H]21,-4
O=C(C1CC1)N1CCCCN2[C@H](CO)[C@H](c3ccc(C#CC4CC4)cc3)[C@H]2C1,30
CCC(=O)Nc1ccc2c(c1)C(=O)N(C)C[C@H](OC)[C@H](C)CN(C(=O)C1CC1)[C@@H](C)CO2,-3
CC(C)NC(=O)N(C)C[C@H]1Oc2c(NS(=O)(=O)c3ccc(F)cc3)cccc2C(=O)N([C@H](C)CO)C[C@H]1C,-4
CCCNC(=O)C[C@H]1C[C@H]2c3cc(NS(=O)(=O)c4cccc(OC)c4)ccc3O[C@H]2[C@@H](CO)O1,-7
OC[C@H]1[C@H](c2ccc(-c3ccc(F)cc3)cc2)[C@@H]2CN(Cc3cccnc3)CCCCN12,-18
COc1ccccc1S(=O)(=O)N1CC[C@@H]2[C@H](CO)Nc3ccc(-c4ccc(C#N)cc4)cc3[C@@H]21,-1
# (further entries)
SMILES,UUG fidelity
C[C@H]1CN([C@@H](C)CO)C(=O)c2cc(NS(C)(=O)=O)ccc2O[C@@H]1CN(C)S(=O)(=O)c1ccc(F)cc1,-14
C[C@H](CO)N1C[C@H](C)[C@H](CN(C)C(=O)Nc2ccccc2)Oc2c(NC(=O)c3cnccn3)cccc2C1=O,11
C[C@@H]1CN([C@@H](C)CO)C(=O)c2cc(NC(=O)Nc3ccccc3)ccc2O[C@H]1CN(C)Cc1ccc(C(=O)O)cc1,1
COc1ccc(C#Cc2ccc3c(c2)[C@H]2[C@H](CCN2S(=O)(=O)c2ccccc2C)[C@H](CO)N3)cc1,4
C[C@H]1CN([C@@H](C)CO)C(=O)c2cc(NC(=O)Nc3cccc4ccccc34)ccc2O[C@H]1CN(C)Cc1ccc(C(=O)Nc2ccccc2N)cc1,-4
CCCNC(=O)Nc1ccc2c(c1)OC[C@H](C)N(C(=O)C1CC1)C[C@@H](C)[C@@H](OC)CN(C)C2=O,17
C[C@H](CO)N1C[C@H](C)[C@H](CN(C)C(=O)Nc2ccccc2)Oc2ccc(NC(=O)C3CCCCC3)cc2C1=O,4
CO[C@@H]1CN(C)C(=O)c2ccc(NC(C)=O)cc2OC[C@H](C)N(C(=O)c2ccncc2)C[C@@H]1C,1
O=C(C1CCC1)N1C[C@H]2[C@@H](c3ccccc31)[C@@H](CO)N2C(=O)Nc1cccc(F)c1,2
C[C@H]1CN([C@@H](C)CO)C(=O)CCCn2cc(nn2)CO[C@H]1CN(C)C(=O)Nc1ccc(N2CCN(C)CC2)cc1,-6
CO[C@H]1CN(C)C(=O)c2cc(NC(=O)C3CC3)ccc2OC[C@@H](C)N(Cc2ccc(F)cc2)C[C@H]1C,-17
O=C(NCC1CCCCC1)[C@@H]1[C@@H](CO)[C@@H]2Cn3c(ccc(C4=CCCC4)c3=O)[C@H]1N2,10
COCC(=O)N(C[C@H]1N[C@H](CO)[C@@H]1c1ccc(C2=CCCCC2)cc1)C(C)C,6
C[C@H](CO)N1C[C@H](C)[C@@H](CN(C)C(=O)Nc2ccc(C(F)(F)F)cc2)OCc2cnnn2CCCC1=O,10
CC(C)NC(=O)N(C)C[C@@H]1Oc2ccc(NC(=O)CCC(F)(F)F)cc2C(=O)N([C@@H](C)CO)C[C@@H]1C,8
O=C(Nc1ccccc1)N1C[C@H]2[C@@H](c3ccccc31)[C@H](CO)N2C(=O)c1ccccn1,24
O=C(c1cccc(F)c1)N1C[C@H]2[C@@H](c3ccccc31)[C@@H](CO)N2C(=O)C1CCCC1,-9
O=C(Nc1ccccc1Cl)N1C[C@@H]2[C@H](c3ccccc31)[C@H](CO)N2C(=O)c1cccnc1,-14
C[C@@H]1CN([C@H](C)CO)C(=O)c2cccc(NC(=O)c3nc4ccccc4s3)c2O[C@H]1CN(C)Cc1ccncc1,4
CC(C)NC(=O)N(C)C[C@@H]1Oc2c(NC(=O)Nc3ccccc3)cccc2C(=O)N([C@H](C)CO)C[C@@H]1C,2
COc1ccccc1C(=O)Nc1ccc2c(c1)C(=O)N(C)[C@H]1CC[C@H](CC(=O)NCc3ccc(Cl)c(Cl)c3)O[C@H]1CO2,-11
Cc1ccccc1S(=O)(=O)N1C[C@H](O)COC[C@H]2O[C@H](CC(=O)N3CCOCC3)CC[C@@H]21,8
O=C(Cc1ccccc1)N1C[C@H]2[C@@H](c3ccccc31)[C@@H](CO)N2C(=O)C1CCOCC1,116*
CC(C)NC(=O)Nc1cccc2c1O[C@@H](CN(C)Cc1ccc(Oc3ccccc3)cc1)[C@@H](C)CN([C@@H](C)CO)C2=O,-5
Cc1cccc(S(=O)(=O)N2C[C@H](O)COC[C@@H]3O[C@H](CC(=O)N4CCN(C)CC4)CC[C@H]32)c1,-5
# Continued:
SMILES,UUG fidelity
O=C(C1CC1)N1[C@@H]2CN(S(=O)(=O)c3ccc(F)cc3)c3ccccc3[C@@H]2[C@@H]1CO,-5
Cc1cccc(S(=O)(=O)N2CCCCN3[C@H](CO)[C@@H](c4ccc(-c5ccccc5)cc4)[C@H]3C2)c1,-9
C[C@@H](NC(=O)C[C@H]1CC[C@H]2[C@@H](COC[C@H](O)CN2C(=O)Nc2ccccc2)O1)c1ccccc1,-19
OC[C@H]1[C@H](c2ccc(Br)cc2)[C@@H]2CN(Cc3cncnc3)CCCCN12,-15
C/C=C/c1ccc([C@@H]2[C@@H](CO)N[C@@H]2CN(C(=O)C2CCC2)C(C)C)cc1,7
O=C(c1ccccn1)N1C[C@@H]2[C@H](c3ccccc31)[C@H](CO)N2C(=O)C1CC1,-13
CC(C)NC(=O)N1CCCCN2[C@H](CO)[C@@H](c3ccc(C#C[C@@H](C)O)cc3)[C@H]2C1,7
CNC[C@H]1Oc2ccc(NC(=O)Cn3cnnn3)cc2C(=O)N([C@@H](C)CO)C[C@@H]1C,-19
C[C@@H]1CN([C@H](C)CO)C(=O)c2cccc(NC(=O)Nc3ccc4c(c3)OCO4)c2O[C@@H]1CN(C)Cc1ccc(Cl)c(Cl)c1,4
O=C(C[C@H]1CC[C@@H]2[C@H](COC[C@@H](O)CN2C(=O)c2cccnc2)O1)NCc1ccc(-c2ccccc2)cc1,-12

# Reprinted from the results shown (14 entries):
SMILES,UUG fidelity
Cc1ccccc1S(=O)(=O)N1C[C@H](O)COC[C@H]2O[C@H](CC(=O)N3CCOCC3)CC[C@@H]21,8
O=C(Cc1ccccc1)N1C[C@H]2[C@@H](c3ccccc31)[C@@H](CO)N2C(=O)C1CCOCC1,116*
CC(C)NC(=O)Nc1cccc2c1O[C@@H](CN(C)Cc1ccc(Oc3ccccc3)cc1)[C@@H](C)CN([C@@H](C)CO)C2=O,-5
Cc1cccc(S(=O)(=O)N2C[C@H](O)COC[C@@H]3O[C@H](CC(=O)N4CCN(C)CC4)CC[C@H]32)c1,-5
O=C(C1CC1)N1[C@@H]2CN(S(=O)(=O)c3ccc(F)cc3)c3ccccc3[C@@H]2[C@@H]1CO,-5
Cc1cccc(S(=O)(=O)N2CCCCN3[C@H](CO)[C@@H](c4ccc(-c5ccccc5)cc4)[C@H]3C2)c1,-9
C[C@@H](NC(=O)C[C@H]1CC[C@H]2[C@@H](COC[C@H](O)CN2C(=O)Nc2ccccc2)O1)c1ccccc1,-19
OC[C@H]1[C@H](c2ccc(Br)cc2)[C@@H]2CN(Cc3cncnc3)CCCCN12,-15
C/C=C/c1ccc([C@@H]2[C@@H](CO)N[C@@H]2CN(C(=O)C2CCC2)C(C)C)cc1,7
O=C(c1ccccn1)N1C[C@@H]2[C@H](c3ccccc31)[C@H](CO)N2C(=O)C1CC1,-13
CC(C)NC(=O)N1CCCCN2[C@H](CO)[C@@H](c3ccc(C#C[C@@H](C)O)cc3)[C@H]2C1,7
CNC[C@H]1Oc2ccc(NC(=O)Cn3cnnn3)cc2C(=O)N([C@@H](C)CO)C[C@@H]1C,-19
C[C@@H]1CN([C@H](C)CO)C(=O)c2cccc(NC(=O)Nc3ccc4c(c3)OCO4)c2O[C@@H]1CN(C)Cc1ccc(Cl)c(Cl)c1,4
O=C(C[C@H]1CC[C@@H]2[C@H](COC[C@@H](O)CN2C(=O)c2cccnc2)O1)NCc1ccc(-c2ccccc2)cc1,-12

# Source: PubChem (Broad Institute)
